Compound activity deposited in PubChem by National Center for Advancing Translational Sciences (NCATS).
RE007 growth inh: less growth of the S. pombe RE007 Vpr strain; S. pombe RE007 Vpr strain, BacTiter-Glo ATP luminescence, 24 h; control for the full effect not named in the record; 0.21% of 360,000 active; Potency, µM (doses to about 92.2 µM), without a hit: at the highest dose activity change, negative = less growth; AID 651644; active = well fitted falling curve with a large enough effect; inconclusive = small, poorly fitted or top-dose-only effect; inactive = no such curve, though single readings can be large or run the other way;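 note: % is set by controls: 0 for no effect and ±100 for the full control effect; nearly all actives have a fitted effect of over 50% in size; the assay follows cell death caused by Vpr and the record does not say whether a fall means rescue or toxicity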
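Fission yeast strain RE007, carrying one chromosomally integrated HIV-1 vpr copy, was seeded at OD 0.01 in PMG+AL medium with 23 nL pinned compound. After 24 h at 30 °C and 99% humidity, viability was read by BacTiter-Glo luminescence.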
Cruzain inh noDet: inhibitors of Trypanosoma cruzi cruzain without detergent. purified cruzain, Z-FR-AMC fluorescence, no detergent. P25779. 2.3% of 200,000 active. AID 1476. Potency, µM, for inactives: max response, negative = inhibition, actives largely listed as inhibitors; active = well fitted curve in the direction sought with a large enough effect; inconclusive = small, poorly fitted or top-dose-only effect, or another doubt; inactive = no such curve, though single readings can be large; an effect the other way counts as inactive or inconclusive;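 note: plate controls were enzyme without inhibitor for no effect and buffer without enzyme for full effect; nearly all actives have a fitted effect of over 40% in size; top concentration of the series not given in the record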
Target sequence (P25779 123-467 limits assumed): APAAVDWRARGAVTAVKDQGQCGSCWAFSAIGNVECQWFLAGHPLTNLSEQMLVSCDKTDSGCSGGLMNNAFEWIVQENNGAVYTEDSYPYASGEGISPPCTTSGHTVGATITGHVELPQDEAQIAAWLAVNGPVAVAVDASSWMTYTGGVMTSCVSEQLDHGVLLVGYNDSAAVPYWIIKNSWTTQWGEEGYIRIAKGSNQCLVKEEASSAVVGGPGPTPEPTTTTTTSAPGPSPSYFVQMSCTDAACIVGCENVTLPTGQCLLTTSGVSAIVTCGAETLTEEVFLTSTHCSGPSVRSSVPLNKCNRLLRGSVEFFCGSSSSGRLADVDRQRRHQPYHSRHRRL
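Purified cruzain at 1.5 nM, pre-incubated 15 min with compound at room temperature in 100 mM sodium acetate pH 5.5, 5 mM DTT, 0.00005% Triton X-100. Reaction started with 2 uM Z-FR-AMC; AMC fluorescence increase over 60 s gives rate.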
Cruzain Triton: cruzain (T. cruzi) inhibition with detergent | P25779 | purified cruzain, Z-FR-AMC fluorescence, 0.01% Triton | Potency, µM, for inactives: max response, negative = inhibition, hits mostly inhibitors | 0.43% of 200,000 active; active = well fitted curve in the direction sought with a large enough effect; inconclusive = small, poorly fitted or top-dose-only effect, or another doubt; inactive = no such curve, though single readings can be large; an effect the other way counts as inactive or inconclusive;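 note: plate controls were neutral wells for no effect and buffer without enzyme for full effect; nearly all actives have a fitted effect of over 40% in size; top concentration of the series not given in the record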
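Read-out: AMC fluorescence (360 nm excitation, 450 nm emission), four reads over 2 min, first-to-third difference used. Conditions: cruzain 1.5 nM, Z-FR-AMC 2 uM, pH 5.5 acetate, 5 mM DTT, 0.01% Triton X-100.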
2A StopGo: lowers the luciferase signal of an FMDV 2A StopGo reporter. human cells with a luciferase reporter of 2A StopGo recoding; control for the full effect not named in the record. Potency, µM (titrated, usually from 57.9 µM), for the others: top-dose signal change, negative = less light. 1.2% of 410,000 active. AID 1159524; active = well fitted falling curve with a large enough effect; inconclusive = small, poorly fitted or top-dose-only effect; inactive = no such curve, though single readings can be large or run the other way; tested in HEK293T cells; note: % is set by controls: 0 for no effect and ±100 for the full control effect; nearly all actives have a fitted effect of over 45% in size; luciferase light after 4 h
SARS PLP yeast: SARS-CoV PLP inhibition in yeast | Potency, µM (top dose mostly 32.9 µM), for the others: at the highest dose activity, positive = growth rescue | S. cerevisiae expressing SARS-CoV PLpro, growth rescue; control for the full effect not named in the record | AID 485353 | 0.19% of 330,000 active; note: 0% is about no effect; nearly all actives have a fitted effect of over 55% in size; growth read by luminescence after 48 h
MARV entry inh: Marburg virus entry inhibition; Marburg virus pseudotyped entry inhibition, cell reporter; control for the full effect not named in the record; about a third of the inactives were read at about 46 µM; Potency, µM (titrated, usually from 37.8 µM), inactives show at the highest dose activity change, negative = inhibition, hits mostly inhibitors; 1.8% of 300,000 active; AID 540276; active = well fitted inhibition curve with a large enough effect; inconclusive = small, poorly fitted or top-dose-only effect, or effect the other way; inactive = flat fitted curve, though single readings scatter; tested in HEK293 cells; about a fifth of its hits are not listed in these tables; note: % is set by controls: 0 for no effect and ±100 for the full control effect; luciferase read-out
NS1 function inh: inhibitors of influenza NS1 protein function; S. cerevisiae slowed by influenza A NS1, growth recovery by OD600; Potency, µM (highest dose often 46.1 µM), inactives show at the top dose activity, positive = more growth; 0.4% of 270,000 active; AID 2326; note: actives are rising curves; nearly all actives have a fitted effect of over 50% in size
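Compounds were scored for reversing the slow growth caused by influenza A NS1 in S. cerevisiae, measured by optical density at 600 nm. Assay medium contained 2% galactose at pH 6.0; NS1-free yeast of the same strain were the positive control.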
LASV entry inh: inhibitors of Lassa virus binding or cell entry; Lassa virus pseudotype entry inhibition, cell reporter; control for the full effect not named in the record; Potency, µM (top dose mostly 37.9 µM), for inactives: top-dose activity change, negative = inhibition, actives largely listed as inhibitors; 1.2% of 300,000 active; AID 540256; active means well fitted inhibition curve with a large enough effect; inconclusive means small, poorly fitted or top-dose-only effect, or effect the other way; inactive means flat fitted curve, though single readings scatter; tested in HEK293 cells; note: % is set by controls: 0 for no effect and ±100 for the full control effect; nearly all actives have a fitted effect of over 50% in size; luciferase read-out
An asterisk follows results filed as active; u = inconclusive; x = no result given; & = joins results of further samples; [ ] = dose if it differs, or a comment. Unless noted, calls come from the whole dose curve; as a rule, active means well fitted rising curve with a large enough effect; inconclusive means small, poorly fitted or top-dose-only effect; inactive means no such curve, though single readings can be large or run the other way. Potency is the fitted concentration of half-maximal effect.

SMILES	RE007 growth inh	Cruzain inh noDet	Cruzain Triton	2A StopGo	SARS PLP yeast	MARV entry inh	NS1 function inh	LASV entry inh
COc1cc(/C=C/[N+](=O)[O-])ccc1OC(=O)c1cc2ccccc2oc1=O	-23%	x	x	-13%	-18%	21%[46.1 µM]	-61%	11%[46.1 µM]
Cc1ccn(CCC(=O)NC2CCCc3c2cnn3-c2cccc(C)c2C)n1 (stereo not drawn)	8%	x	x	-11%	15%	x	-11%	x
CC(=O)c1ccc(CCCCc2ccc(C(C)=O)cc2)cc1	20%	x	x	-4%	x	0%[46.1 µM]	x	-23%[46.1 µM]
COCc1cc(C)nc(SCC[N+](C)(C)CC(=O)Nc2cccc(C)c2)c1C#N	2%	x	x	-5%	-6%	-7%[46.1 µM]	x	1%
CC1CCN(C(=O)CC(NC(=O)c2ccccc2Cl)c2ccccc2)CC1 (stereo not drawn)	-5%	x	x	-14%	-1%	-3%	18%	-4%
CCn1ncc([N+](=O)[O-])c1C(=O)NC1CCCCC1	0%	x	x	1%	0%	x	5%	x
O=C(CCS(=O)(=O)c1ccc(F)cc1)Nc1nnc(-c2ccc(F)cc2)o1	-10%	x	x	-1%	0%	-8%	x	-12%
COc1cccc(CNCCc2c[nH]c3ccccc23)c1OCc1ccc(F)cc1	7%	2%	4.3%	u	-7%	u	-1%	u
Cc1ccc(-n2ncc3c(NCCCn4ccnc4)ncnc32)c(C)c1	3%	-11%	-1.9%	-25%	-7%	x	-27%	x
COc1ccccc1N1C(=O)S/C(=C\c2ccc(C)s2)C1=O	14%	x	x	0%	-6%	x	-61%	x
COc1ccc(-n2nc3ccc(NC(=O)c4ccc(-c5cc(Cl)ccc5Cl)o4)cc3n2)cc1	x	-9%	-2.3%	8%	x	x	x	u
CC(OC(=O)CCCC(=O)Nc1ccccc1)C(=O)c1ccccc1 (stereo not drawn)	-8%	x	x	-15%	0%	u	-9%	3%[46.1 µM]
Cc1c(OC(C(=O)O)c2ccccc2)ccc2c(-c3ccccc3)cc(=O)oc12 (stereo not drawn)	3%	x	x	-7%	0%	-5%[46.1 µM]	17%	-18%[46.1 µM]
O=C(CN1C(=O)C(=O)N(C2CCCC2)C1=O)Nc1ccc(Cl)cc1C(F)(F)F	-5%	x	x	-4%	-5%	9%	x	4%
Cc1ccc(CNS(=O)(=O)c2c(C)nc3sc(C)cn3c2=O)cc1	x	-5%	-7.7%	3%	x	x	x	16%[46.1 µM]
COc1ccccc1N1CCN(CC(=O)Nc2ccnn2C2CCCC2)CC1	1%	x	x	u	1%	u	x	-19%
CCOc1ccc(CN2CCN(Cc3ccon3)CC2CCO)cc1 (stereo not drawn)	-13%	x	x	-11%	0%	-5%[46.1 µM]	3%	-5%[46.1 µM]
Cc1cc(/C(N)=N/OC(=O)c2ccccc2Cl)no1	-16%	x	x	u	-1%	u	-5%	u
CCn1c(SCc2ccc([N+](=O)[O-])cc2)nnc1C(C)NC(=O)c1ccccc1Br (stereo not drawn)	10%	-2%	1.6%	x	-9%	-5%	1%	-27%
Cn1c(O)c(N=NC(=O)c2ccccc2O)c2ccccc21	-30%	x	x	-4%	-3%	u	4%	u
Cc1cc(C)c2c(CC(=O)NNC(=O)c3ccccc3)coc2c1	-9%	x	x	-16%	-5%	x	1%	x
O=C(NCCCN1CCOCC1)c1cc(Cl)ccc1Cl	-9%	x	x	-10%	2%	x	23%	x
Cc1ccc(CCNC(=O)CCSCc2ccc(Cl)cc2)cc1	-2%	0%&-13%	1.1%&-0.5%	6%&-24%	-4%	u	-6%	-1%[46.1 µM]
O=C(CN1C(=O)c2ccccc2S1(=O)=O)NCCSc1ccccc1	33%	1%	4.3%	38%[activator]	-3%	-2%[46.1 µM]	-5%	-10%
CCCCCCCCN=C1NC(=O)CS1	22%	8%	1.0%	-22%	-4%	9%	11%	-2%
SMILES	RE007 growth inh	Cruzain inh noDet	Cruzain Triton	2A StopGo	SARS PLP yeast	MARV entry inh	NS1 function inh	LASV entry inh
Cc1ccc(S(=O)(=O)N(C)C)cc1NC(=O)COC(=O)c1ccc2c(=O)n3c(nc2c1)CCC3	3%	x	x	4%	3%	21%	x	5%
Cc1cccc2sc(N(CCCN(C)C)C(=O)c3ccc(Cl)s3)nc12	-14%	x	x	-9%&-22%	-5%	u	x	u
CCCSc1oc(-c2ccco2)nc1S(=O)(=O)c1ccc(Br)cc1	x	6%	-11%	7%	x	-39%[46.1 µM]	x	11%[46.1 µM]
Cc1nc(SCC(=O)NCc2ccco2)[nH]c(=O)c1C	3%	-3%	1.2%	x	0%	-23%	5%	5%
CC(C)(C)NC(=O)c1ccc2c(c1)N(CC(=O)NC1CCCC1)C(=O)C(C)(C)O2	-23%	x	x	6%	9%	-11%[46.1 µM]	8%	16%
CCCCNC(=O)c1ccc(S(=O)(=O)c2ccc(Cl)cc2)c(NC(C)=O)c1	4%	7%	2.1%	-21%	3%	-12%	3%	-5%
CCCOC(=O)c1cc(-c2ccc(/C=C3/C(=O)N(C)C(=O)C(C#N)=C3C)o2)ccc1Cl	2%	x	x	12%	x	u	x	22%
CC12CCC(C(=O)n3c1nc1ccccc13)C2(C)C (stereo not drawn)	2%	2%	6.2%	x	4%	0%	-9%	5%
O=C(CS(=O)(=O)c1ccc(F)cc1)Nc1nnc(-c2ccccc2Cl)o1	2%	x	x	-3%	-4%	-2%	x	-4%
CC1(OC(=O)C2CCCC2)C(=O)C=C2C=C(c3ccsc3)N(C3CC3)C=C2C1=O (stereo not drawn)	2%	x	x	-4%	1%	u	0%	x
COc1ccc(CNc2nc3nc(C)c(Cl)c(C)n3n2)cc1OC	-1%	x	x	10%	x	10%	-4%	12%
CCc1cccc(CC)c1NC(=O)COC(=O)C1(c2ccc(Cl)cc2)CCCC1	-5%	-1%	-6.2%	-27%	-12%	-10%	0%	4%
Cc1nn(-c2nnc(C)c(=O)[nH]2)c(C)c1SCC(=O)Nc1ccc(C(C)C)cc1	7%	u	5.5%	-11%	0%	15%	11%	24%
CC(O)CNc1nc2sc3c(c2c(=O)n1Cc1ccco1)CCCCC3 (stereo not drawn)	0%	x	x	7%	0%	u	1%	18%[46.1 µM]
COc1ccc(O)c(CN2CCCC(C(=O)c3sccc3C)C2)c1 (stereo not drawn)	-7%	x	x	-21%	-1%	-6%[14.2 µM]	-4%	-7%
O=C(c1cc(F)ccc1F)C1CCCN(Cc2ccc3nonc3c2)C1 (stereo not drawn)	-8%	x	x	u	0%	u	-2%	-19%
COc1cc(/C=N/Nc2nc3c(c(=O)n(C)c(=O)n3C)n2Cc2ccccc2)ccc1OC(=O)c1ccco1	-14%	-4%	u	14µM*	4%	u	15%	u
COc1ccc(-n2c(Cc3cccn3C)nnc2SCC(=O)Nc2ccc(C(C)=O)cc2)cc1	-2%	u	-3.1%	9%	6%	x	u	x
Cc1ccc(O)c(N=Nc2ccccc2)n1	u	-4%&3%	-5.8%&-6.6%	u	x	u	-30%	u
O=C(c1cnc2ccccc2n1)N1CCN(c2ccc(C(F)(F)F)cn2)CC1	-14%	x	x	-18%	-1%	2%[46.1 µM]	6%	7%[46.1 µM]
CC(=O)C1=C(O)C(=O)N(Cc2ccccc2)C1c1cccs1 (stereo not drawn)	6%	-1%	-4.6%	10%	8%	5%	-1%	17%
Cc1cccc(C)c1NC(=O)N1CCC(N2CCCCC2)CC1	0%	-2%	0.0%	9%	1%	-4%	-5%	9%
O=C(O)c1cn(-c2ccccc2)nc1C(=O)O	7%	-9%	-0.4%	-7%	-20%	-3%[46.1 µM]	10%	3%
O=c1c2[nH]c3ccccc3c2ncn1C1CCCCC1	21%	-11%	1.0%	45%[activator]	4%	-16%[46.1 µM]	-19%	-18%
CC1CCN(S(=O)(=O)c2ccc(C(=O)Nc3nnc(C4CC4)o3)cc2)CC1	1%	x	x	-5%	13%	u	-96%	u
SMILES	RE007 growth inh	Cruzain inh noDet	Cruzain Triton	2A StopGo	SARS PLP yeast	MARV entry inh	NS1 function inh	LASV entry inh
Cc1csc(N2C(=O)C3C4CCC(O4)C3C2=O)n1 (stereo not drawn)	-16%	x	x	-16%	x	-1%	x	8%
Cc1ccc(C(=O)N2CCSC2=S)cc1	73%	x	x	-22%	0%	u	-10%	u
CCOC(=O)C1=C(c2ccccc2)N=C2SCC(=O)N2C1c1ccc(OC)c(OC)c1 (stereo not drawn)	16%	u	-5.8%	-6%	-7%	-14%	20%	-7%
CC(=O)c1ccc(NC(=O)COc2ccccc2-c2nc(-c3ccccc3)no2)cc1	x	1%	-2.0%	-8%	x	8%[46.1 µM]	x	3%[46.1 µM]
O=C(c1ccccc1F)N1CCN(S(=O)(=O)c2ccc(Br)cc2)CC1	15%	x	x	-23%	1%	x	-12%	x
Cc1cc(C)nc(NC(=O)CSc2nc3ccccc3s2)n1	7%	0%	2.1%	-9%	-4%	-25%	-18%	u
N#CCCC1CCCC=C1N(Cc1ccccc1)C(=O)C(Cl)Cl (stereo not drawn)	-7%	x	x	10%	0%	-15%[46.1 µM]	-10%	-18%
Cc1ccc(OC(=O)CCC(=O)OCCCC(F)(F)C(F)(F)F)cc1	-5%	u	-5.1%	11%	-2%	0%	-12%	-1%
O=C1NC2(CCCCC2)NN1c1ccccc1	56%	13%	6.2%	14%	x	u	-5%	4%
O=C(NNS(=O)(=O)c1ccc([N+](=O)[O-])cc1)c1ccc2ccccc2c1O	0%	x	x	27%	3%	12%[46.1 µM]	-5%	14%[46.1 µM]
O=C1[C@@H]2[C@H](C(=O)N1O)[C@H]1C=C[C@@H]2C1	2%	10%	9.9%	20%	-2%	3%	-3%	21%
Cc1ccc(-c2nsc(NC(=O)c3oc4cc(C)c(Cl)cc4c3C)n2)cc1	x	15%	2.9%	-17%	x	-9%[46.1 µM]	x	3%[46.1 µM]
COc1ccc(NC(=O)Cn2c(=O)oc3cc(Cl)ccc32)c(OC)c1	-6%	-1%	-0.1%	8%&-13%	2%	x	-1%	-18%[46.1 µM]
Cc1ccc2nc(Nc3ccc(F)cc3)c3nncn3c2c1	-2%	x	x	0%	-2%	x	0%	x
O=C(N/N=C/c1ccc[nH]1)c1ccncc1	1%	x	x	-10%	-1%	10%	x	28%[46.1 µM]
